Compound activity deposited in PubChem by several laboratories.
Calb FLC: C. albicans growth modulation with fluconazole | hit rate 0.57% among 300,000 | C. albicans CaCi-2 (fluconazole-resistant clinical isolate) + fluconazole, Alamar Blue growth, 48 h | growth inhibition, % (no concentration beside the values);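 active means most replicates above 75%; inconclusive means exactly half above 75%; inactive means most below 75%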;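 further: all wells also contain fluconazole at 8 µg/ml as a sub-toxic cotreatment; 0% = median of DMSO wells and 100% = median of geldanamycin control wells; wells of about 8 µL received 7.5 nL stock; the first replicate is given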
T cruzi repl: T. cruzi replication inhibition | T. cruzi beta-gal in NIH3T3, luminescence, 90 h | inhibition, % (concentration not given with the values) | hit rate 1.4% among 300,000 | AID 1885;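 active means mean inhibition across valid replicates above about 55%, limit read from the data; inconclusive means mean below that limit but half or more replicates reach it; inactive means mean below it, under half of replicates reach it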;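 further: signal also drops with host cell toxicity which is not excluded here; 0% = plate median of DMSO wells and 100% = zero luminescence signal; higher percent means less beta-gal luminescence so fewer parasites; stock transfer was 50 nL into about 50 µL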
LANA-H2A inh: blocks KSHV LANA binding to histone H2A/H2B | inhibition, % (test concentration not listed) | Q9QR71 | cell-free LANA-H2A/H2B peptide, fluorescence polarization | hit rate 0.6% among 320,000; in the data active means inhibition mostly above about 10%, no sharp cut-off; inactive means mostly below about 6.7%;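 further: stock transfer was 7.5 nL into about 10 µL; 0% = median of vehicle wells and 100% = median of positive control wells; one replicate is shown; the record names a cut of 25% in any replicate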
Vif TR-FRET: inhibitors of Vif binding to APOBEC3G peptide, primary screen, biochemical, TR-FRET, GST-Vif 1-94, biotin-A3G peptide, dose response retest (AID 1117319) | one-dose inhibition, %; IC50 in µM for titrated hits | hit rate 0.57% among 260,000 | TR-FRET GST-Vif / biotin-A3G peptide binding; higher % means a stronger effect; test concentration not given here; strong numbers were not always called active;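 active means above the screen mean plus three standard deviations and confirmed in dose response; inconclusive means results disagree or hit not tested in dose response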;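 further: Vif residues 1-94 fused to GST binding biotinylated APOBEC3G peptide 110-148; 0% = full assay without inhibitor and 100% = GST in place of GST-Vif; retest series ran down from 100 µM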
Bfl-1 A1 inh: inhibitors of the anti-apoptotic protein A1, read as caspase activation; MEF A1-2A-BIM cells, Caspase-Glo 3/7 luminescence, 3 h; percent of clofoctol response, vehicle zero; caspase activation, % (concentration not given with the values); hit rate 0.066% among 330,000; AID 2462;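 active means over half of replicate activation scores above 10%, or exactly half above 10 with the replicate mean above 10; inconclusive means replicate mean below 10 yet half the replicates above 10; inactive means over half of replicates below 10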;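 further: wells of about 30 µL received 50 nL stock; many hits fall short of the cut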
MLL AF4-AF9 inh: blocks AF4 peptide binding to human AF9 | inhibition, % at 10 µM | hit rate 0.47% among 350,000 | AlphaScreen, biotin-AF4 peptide binding to FLAG-AF9 | AID 651704;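 active means every replicate reaching a set inhibition limit, whatever the replicate mean, cut at about 25% in these data; inconclusive means mean inhibition reaches that limit but some replicates miss it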;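 further: 0% = plate neutral control median and 100% = total signal loss; the record names both 10 and 1 µM as test concentration; the first replicate is given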
Target sequence (P42568 whole entry, looked up): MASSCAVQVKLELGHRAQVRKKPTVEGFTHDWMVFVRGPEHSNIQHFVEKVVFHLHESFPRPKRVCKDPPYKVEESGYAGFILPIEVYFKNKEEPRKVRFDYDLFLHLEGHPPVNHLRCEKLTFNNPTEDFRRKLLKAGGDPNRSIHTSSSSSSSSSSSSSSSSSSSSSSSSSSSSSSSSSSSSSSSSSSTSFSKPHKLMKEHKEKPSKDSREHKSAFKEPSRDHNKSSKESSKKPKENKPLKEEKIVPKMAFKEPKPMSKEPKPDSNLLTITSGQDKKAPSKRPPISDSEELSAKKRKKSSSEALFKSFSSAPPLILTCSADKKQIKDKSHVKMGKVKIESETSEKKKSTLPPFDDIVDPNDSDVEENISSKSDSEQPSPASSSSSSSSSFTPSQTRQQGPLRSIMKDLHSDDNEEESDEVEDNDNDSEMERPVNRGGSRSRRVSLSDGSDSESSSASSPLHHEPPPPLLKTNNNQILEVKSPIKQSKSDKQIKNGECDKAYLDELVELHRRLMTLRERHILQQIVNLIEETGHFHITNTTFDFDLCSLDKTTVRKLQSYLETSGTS
RanGTP-Imp inh: disruptors of Ran-importin-beta complex formation – biochemical, FRET, CFP-Ran, YFP-importin-beta, homogeneous, primary screen; cell-free CFP-Ran/YFP-importin-beta FRET ratio; inhibition, % (test concentration not listed); hit rate 1.1% among 300,000;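 active means most replicates above 15%; inconclusive means exactly half above 15%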;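 further: 0% = DMSO wells and 100% = Ran loaded with GDP instead of GTP; wells of about 40 µL received 100 nL stock; the first replicate is given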
Beta cell apopt: beta cell apoptosis inhibition | hit rate 0.8% among 300,000 | INS-1E cytokine-induced death, ATP luminescence, 48 h; percent of positive-control rescue, neutral wells zero | AID 435005 | protection from apoptosis, % (no concentration beside the values);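 active means all replicates at 75% or more, or half of them and the mean; inconclusive means half reach 75% but not the mean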;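 further: 0% = cytokine-treated negative control wells and 100% = positive control rescue; higher means more ATP so stronger rescue from cytokine killing; wells of about 40 µL received 100 nL stock; the first replicate is given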
The depositor's hits bear a star; ? = inconclusive; / = no result given.

compound	Calb FLC	T cruzi repl	LANA-H2A inh	Vif TR-FRET	Bfl-1 A1 inh	MLL AF4-AF9 inh	RanGTP-Imp inh	Beta cell apopt
CCOc1ccc(NC(=O)CCC(=O)O)cc1	?	0	2.1	?	0.4	/	24*	-2
CC(OC(=O)CN1C(=O)C2CCCCC2C1=O)C(=O)Nc1ncc(Cl)cc1Cl (stereo not drawn)	-8	-7	0.0	1%	0.5	/	2.2	-17
Cc1nc([N+](=O)[O-])c(SCC(N)=O)n1Cc1ccccc1	-7	-11	-2.3	-2%	0.2	0.0	-2.8	-5
CCCCN(C)S(=O)(=O)c1ccc(C(=O)Nc2nnc(-c3cccs3)o2)cc1	84*	57*	6.4	?	1.0	/	-2.3	11
Cc1ccc(NC(=O)CNc2cccc(S(=O)(=O)N3CCCC3)c2)cc1F	1	1	4.5	-11%	0.8	1.8	1.2	3
CCOc1ccc(-n2c(-c3ccco3)nc3c(cnn3-c3ccc(C)cc3)c2=O)cc1	-1	14	2.7	/	0.2	-4.3	0.5	-2
Nc1ccc(CCS(N)(=O)=O)cc1	12	7	-1.1	-1%	0.2	/	-4.6	-12
O=C(NCCCN1CCCC1=O)c1ccc2c(=O)n(Cc3ccco3)c(=S)[nH]c2c1	-2	-21	-2.7	?	-0.5	/	-0.9	-3
CC(C)(C)C1CCc2c(sc3nc(SCC(N)=O)nc(N)c23)C1 (stereo not drawn)	26	12	2.3	25%	-1.5	/	4.9	-3
CC1CCCN(C(=O)CSc2ncccn2)C1 (stereo not drawn)	-2	-14	1.5	/	0.8	-1.8	1.0	-6
CC(C)c1ccc(OCC(=O)Nc2ccc3oc(=O)ccc3c2)cc1	14	7	4.2	/	-0.1	-0.6	-5.7	-3
CC1CCC2(CC1)NC(=O)c1ccccc1O2 (stereo not drawn)	-14	-14	-4.8	6%	1.4	/	-1.2	3
O=C(Nc1nccs1)c1ccc(-c2ccccc2Cl)o1	?	-5	-3.5	-17%	-7.1	/	1.2	/
O=C(NCC1CCOCC1)c1ccc(OC2CCN(Cc3ccccn3)CC2)cc1	1	-19	3.3	4%	0.2	-1.4	2.2	1
Cc1ccc(OCc2ccc([N+](=O)[O-])cc2)c([N+](=O)[O-])n1	5	3	0.1	17%	0.3	-1.8	-1.6	4
Cc1ccc(NC(=O)CC2OC(=O)c3ccccc32)cc1S(=O)(=O)N1CCCCCC1 (stereo not drawn)	/	/	11*	-5%	1.8	-1.0	/	1
CC1CC(C)CN(S(=O)(=O)N2CCCC(C(=O)NCc3ccccc3Cl)C2)C1 (stereo not drawn)	-1	5	-2.5	/	0.4	-9.4	3.5	4
CCCc1[nH]nc2c1C(CCC)C(C#N)=C(N)O2 (stereo not drawn)	30	2	3.8	-3%	0.3	/	-1.4	-5
CCS(=O)(=O)N1CCN(c2ncnc3sc(C)c(C)c23)CC1	56	14	0.9	0%	0.2	0.1	0.3	/
COc1ccc(C)cc1NC(=O)COC(=O)c1ccc([N+](=O)[O-])o1	?	2	1.4	9%	0.5	-1.5	0.3	3

(cont.)
compound	Calb FLC	T cruzi repl	LANA-H2A inh	Vif TR-FRET	Bfl-1 A1 inh	MLL AF4-AF9 inh	RanGTP-Imp inh	Beta cell apopt
O=C(N1CCOCC1)N1c2ccccc2Sc2ccccc21	11	18	0.5	-1%	-0.3	/	1.3	-1
CCCCNC(=O)NS(=O)(=O)c1ccc(C)cc1	2	8	1.5	-4%	0.1	-0.5	6.8	3
CC(C)(C)c1nnc(NC(=O)Cc2ccc(Br)cc2)s1	24	4	-0.2	16%	0.6	-3.4	-0.3	-3
COC(=O)NN1C(=O)C(c2ccccc2)=C(c2ccc(Cl)cc2)C1=O	7	34	-1.8	/	0.2	4.1	5.1	-1
Cc1ccc(S(=O)(=O)NCc2ccccc2)cc1C(=O)N1CCCCC1	0	8	2.4	4%	0.6	1.1	0.9	-2
Cc1cc(NS(=O)(=O)c2ccc(NC(=O)c3cc(-c4ccccc4Cl)nc4ccccc34)cc2)no1	-3	-4	-1.7	-5%	0.5	5.2	-0.3	-2
COc1ccc(NC(=O)C(=O)NCCN2CCN(C(=O)C(c3ccccc3)c3ccccc3)CC2)cc1	2	20	0.8	4%	-0.9	/	?	-2
CCc1cc(=O)oc2cc(OC(C)C(=O)NCC(O)c3ccccc3)c(Cl)cc12 (stereo not drawn)	-1	0	1.9	/	-1.2	-4.2	-1.5	-5
CC(=O)O/N=C(/c1nonc1N)N(C)C	5	-12	-1.3	2%	0.6	0.0	6.2	1
CN=C1SC(CC(=O)Nc2cccc(C(F)(F)F)c2)C(=O)N1C (stereo not drawn)	1	3	0.9	4%	0.8	/	3.5	-2
Cc1csc2nc(CNC(=O)CCC(=O)O)cn12	-8	-7	-1.3	-4%	-0.3	3.6	-9.3	-4
NS(=O)(=O)c1cccc(NC(=O)COc2ncnc3c2cnn3-c2ccccc2)c1	-10	-6	131*	-2%	0.5	-1.7	2.7	1
CC/C(=N\NC(=O)c1ccc2c(c1)OCO2)C12CC3CC(CC(C3)C1)C2	9	-8	-0.7	-3%	0.8	/	4.5	-8
O=C(NCc1ccc(F)cc1)c1nc(-c2cccs2)no1	16	-3	2.9	-10%	-0.2	-1.4	2.6	-2
Cc1ccc(NC(=O)CCN2C(=O)c3ccncc3C2=O)cc1	-2	-15	-3.4	4%	-0.2	/	1.1	-2
COc1ccc(S(=O)(=O)N2CCOC2CNC(=O)C(=O)NCc2ccc3c(c2)OCO3)cc1OC (stereo not drawn)	-2	8	-0.6	2%	1.1	-0.4	4.6	1
COc1ccc(OCCSc2nnc(CCNC(=O)c3ccc(OC)cc3)n2C)cc1	-2	8	5.3	8%	1.3	/	8.3	-1
COc1ccccc1/C=C/C=N\N1CCN(Cc2ccccc2Cl)CC1	-9	-4	/	4%	0.2	/	2.4	-1
COc1ccccc1NC(=O)CN1C(=O)COc2ccc(S(=O)(=O)N3CCC(C)CC3)cc21	-4	-9	0.7	/	-0.3	6.2	-2.6	-9
CCc1nnc(NS(=O)(=O)c2ccc(NC(=O)c3ccc(Br)cc3)cc2)s1	-1	11	-2.6	/	0.6	0.4	-0.2	/

(further entries)
compound	Calb FLC	T cruzi repl	LANA-H2A inh	Vif TR-FRET	Bfl-1 A1 inh	MLL AF4-AF9 inh	RanGTP-Imp inh	Beta cell apopt
COc1cc(CC(=O)OCC(=O)Nc2ccc([N+](=O)[O-])cc2)cc(OC)c1OC	29	-15	0.4	32%	0.0	2.1	2.2	-3
CCc1ccc(S(=O)(=O)NCc2cn3ccccc3n2)s1	11	-10	3.6	21%	0.4	/	-1.2	2
COc1ccc(C(C)=O)cc1CSc1nnc(SCc2cc(C(C)=O)ccc2OC)s1	-1	7	-6.6	-8%	0.3	-2.1	0.9	-1
CC1(C)C2CCC1(C)C(NCC(O)COc1ccc(C#N)cc1)C2 (stereo not drawn)	-10	-14	-1.9	3%	0.6	-1.1	3.0	0
NS(=O)(=O)c1ccc(CCNC(c2ccccc2)c2ccccc2)cc1	-1	13	-2.7	/	-0.4	-0.1	3.0	2
COc1cccc(CN(CC2CCCO2)S(=O)(=O)c2ccc(S(=O)(=O)NCC3CCCO3)cc2)c1OC (stereo not drawn)	-13	2	0.1	3%	-0.1	/	5.1	-4
Cc1ccc(NC(=O)Cn2cnc3c(nnn3Cc3ccc(F)cc3)c2=O)cc1	?	-6	3.0	/	-0.1	-1.7	-1.3	-8
CCCCN(CCCC)CCNC(=O)c1ccc2nc(-c3ccccc3NC(C)=O)c(=O)[nH]c2c1	18	3	0.6	2%	0.3	-0.1	1.4	4
CCN1C(=O)/C(=C/c2cc(C)n(C)c2C)SC1=Nc1ccc(OC)cc1	0	26	0.3	9%	-0.5	/	-0.8	-4
Cc1ccc(C(=O)CCC(=O)OCc2nnc(-c3ccccc3)o2)cc1	11	-18	-1.1	10%	-0.6	-1.1	3.1	0
Cc1nnc2ccc(-c3cccc(NS(=O)(=O)c4ccccc4[N+](=O)[O-])c3)nn12	3	38	-0.9	9%	-0.4	-0.5	-2.6	13
O=S(=O)(NCCN1CCCC1)c1cccc2cccnc12	-1	12	-2.0	-6%	1.4	-16	-0.7	/
COc1ccc(CCN2CC(C(=O)N3CCCCCC3)CCC2=O)cc1 (stereo not drawn)	4	-6	-1.9	9%	0.5	-0.3	1.2	/
Cc1ccc2[nH]c(=O)c(CN(C(=O)c3cccc([N+](=O)[O-])c3)C(C)(C)C)cc2c1	11	12	0.0	-6%	-0.1	1.1	1.8	-3
CCOC(=O)c1c(C)[nH]c(C)c1S(=O)(=O)N(C)CC(=O)N(C)Cc1ccccc1	6	6	3.0	/	0.2	-0.2	-0.2	-8
CCCc1cc(C(=O)N2CCCC(N3CCN(c4ccccc4F)CC3)C2)n(C)n1 (stereo not drawn)	3	-8	1.9	/	0.3	1.8	2.6	-3
C=CC[C@H](CC(=O)N(CCO)Cc1ccccc1)C(=O)N[C@@H](C)COC(=O)[C@@H](CC=C)Cc1ccc(F)cc1	/	/	3.2	/	-0.8	-1.5	/	-15
Cc1ccc(NC(=O)c2nc[nH]c2C(=O)N2CCN(c3ccccc3)CC2)cc1	-5	-7	12	-4%	1.1	-6.9	-6.2	-6
CCN(C[C@H]1N[C@@](CC)(C(=O)OC)[C@H]2C(=O)N(Cc3ccccc3)C(=O)[C@@H]12)S(=O)(=O)c1ccc(OC)cc1	/	/	-154	/	-1.0	1.3	/	-13
Nc1nc(SCc2ccccc2)ns1	3	1	1.7	0%	-1.9	/	-1.9	-2

Next structures follow.
compound	Calb FLC	T cruzi repl	LANA-H2A inh	Vif TR-FRET	Bfl-1 A1 inh	MLL AF4-AF9 inh	RanGTP-Imp inh	Beta cell apopt
Cc1c(Br)c([N+](=O)[O-])nn1CC(=O)Nc1nccs1	-1	17	-0.4	10%	0.5	-1.9	2.7	-1
Cc1cc(N)ccc1NC(=O)c1ccccc1	8	-8	-4.6	3%	0.6	/	-3.7	-3
O=C(CCCCCn1c(=S)[nH]c2cc3c(cc2c1=O)OCO3)N1CCN(C2CCCCC2)CC1	-4	11	-0.8	-5%	0.7	/	4.9	50
COc1cccc(NC(=O)COC(=O)CCC(=O)c2cccs2)c1	/	/	2.4	-6%	-0.1	-1.0	/	-4
CCOc1ccc(Cn2c(O)cc(=O)[nH]c2=O)cc1	3	-9	-1.3	19%	0.4	/	-0.1	-3
C=CCOC(=O)C1=C(C)NC(SCC(=O)N(CC)CC)=C(C#N)C1c1ccccc1 (stereo not drawn)	-1	50	-1.6	4%	-0.6	/	?	-4
COc1ccc(C(=O)OC(C(=O)c2ccc(C)cc2)c2ccccc2)cc1 (stereo not drawn)	-4	-8	2.3	9%	?	/	-1.4	0
CCCNS(=O)(=O)c1ccc(CCC(=O)NCc2ccc3c(c2)OCO3)cc1	-5	16	-0.1	1%	-0.9	/	1.8	-11
Cc1cc(Oc2ccc(=O)n(C)n2)nc(SCCOc2ccccc2)n1	-8	-8	-6.2	1%	0.2	-5.2	-1.4	-5
COc1ccc(NC(=O)COc2cc(O)c3c(c2)OC(C)(C)CC3=O)cc1	-3	-1	-0.9	/	0.0	1.1	2.2	-1
CCOC(=O)c1ccc(C(=S)N2CCCC2)cc1	-4	-8	/	6%	/	3.2	-1.8	/
